# Compound activity as filed in PubChem BioAssay.
# PINK1 expr mod – changes PINK1 expression | actives 0.2% (n = 410,000) | AID 624263 | PINK1 immunofluorescence, high-content cytometry, 24 h | Potency, µM (highest dose often 76.6 µM), without a hit: top-dose activation (PINK1 increase), usual class: activators; active = well fitted activation curve with a large enough effect; inconclusive = small, poorly fitted or top-dose-only effect; inactive = flat fitted curve, though single readings scatter; cell line not stated here;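 also: potency is read from the fitted curve at half-maximal effect; % of control where 0% means no effect; nearly all actives have a fitted effect of over 65% in size; a mitochondrial uncoupler was the plate control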
#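 Decision-based qHTS: stable cells, 24 h exposure to five compound concentrations, CCCP as control. Fixed cells stained for PINK1 plus nuclear, mitochondrial and cell markers, cytometer read.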
# D2 PAM – positive allosteric modulators of human D2 dopamine receptor. P14416. potentiation, % (no concentration beside the values). AID 624464. actives 0.23% (n = 360,000). DiscoveRx D2 beta-arrestin cells, luminescence, 90 min; 100% = 57 uM dopamine signal; active = potentiation of 50% or more; inconclusive = 30% to 50%; inactive = 30% or less;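 also: compound concentration not given in the record; tested on top of an EC20 dose of dopamine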
# Target sequence (P14416 whole entry, looked up): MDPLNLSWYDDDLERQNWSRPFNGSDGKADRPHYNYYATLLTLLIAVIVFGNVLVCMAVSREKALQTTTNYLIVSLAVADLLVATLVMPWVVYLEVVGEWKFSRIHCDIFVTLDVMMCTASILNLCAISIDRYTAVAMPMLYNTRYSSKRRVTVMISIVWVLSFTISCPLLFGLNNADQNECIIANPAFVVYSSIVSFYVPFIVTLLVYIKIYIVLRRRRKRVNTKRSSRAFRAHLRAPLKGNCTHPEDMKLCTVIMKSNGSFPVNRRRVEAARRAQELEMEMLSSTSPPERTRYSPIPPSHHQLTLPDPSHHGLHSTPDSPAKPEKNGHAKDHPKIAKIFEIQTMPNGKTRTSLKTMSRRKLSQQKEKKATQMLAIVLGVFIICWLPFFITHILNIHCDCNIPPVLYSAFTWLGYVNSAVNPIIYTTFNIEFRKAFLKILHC
#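 PathHunter beta-arrestin assay in DiscoveRx D2 cells. Compounds were added with an EC20 of dopamine (50 nM final) for 90 min at 37 deg C. Luminescence was read 1 h after detection reagent, with 57 uM dopamine as the EC100 control.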
# TRPML1 agonist – agonists of human TRPML1 channel. Q9GZU1. activation, % (no concentration beside the values). TRPML1-expressing cells, Ca2+ dye fluorescence, FDSS; host cell line not named in the record; reference of the full effect not given here. AID 624414. actives 0.12% (n = 410,000); in the data active = activation above about 50%; inconclusive = about 30% to 50%; inactive = below about 30%; also: 0% is about no effect; the text of the record puts the active cut at 80%
# Target sequence (Q9GZU1 whole entry, looked up): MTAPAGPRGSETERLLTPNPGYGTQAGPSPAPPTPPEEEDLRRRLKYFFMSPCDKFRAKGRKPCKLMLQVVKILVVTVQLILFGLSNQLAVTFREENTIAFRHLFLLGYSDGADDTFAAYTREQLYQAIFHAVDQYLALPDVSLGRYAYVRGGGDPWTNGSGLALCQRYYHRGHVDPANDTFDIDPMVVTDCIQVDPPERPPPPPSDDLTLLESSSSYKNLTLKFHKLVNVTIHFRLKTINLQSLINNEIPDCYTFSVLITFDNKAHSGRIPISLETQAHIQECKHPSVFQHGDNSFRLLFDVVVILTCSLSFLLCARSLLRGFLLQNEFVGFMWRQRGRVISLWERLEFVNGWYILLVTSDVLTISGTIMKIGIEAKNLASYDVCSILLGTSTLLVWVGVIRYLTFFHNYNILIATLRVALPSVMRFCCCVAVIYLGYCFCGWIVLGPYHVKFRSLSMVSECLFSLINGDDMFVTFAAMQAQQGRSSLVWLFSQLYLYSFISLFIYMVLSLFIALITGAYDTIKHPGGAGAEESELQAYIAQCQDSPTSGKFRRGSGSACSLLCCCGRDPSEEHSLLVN
#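 In this qHTS format, compounds were pin-transferred onto Ca8-dye-loaded TRPML1-DL cells induced with Tet overnight, and intracellular Ca2+ fluorescence was recorded kinetically for 110 s after a 10 s baseline. A subsequent 4uM final 54-4 (EC80) addition followed by a second 110 s read served as the antagonist phase.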
# TRPML1 inh – inhibitors of human TRPML1 channel; Q9GZU1; TRPML1-inducible cells, Ca2+ dye fluorescence, FDSS; stronger effect = lower value; inhibition of EC80 agonist-evoked calcium signal; activity change, negative = inhibition, % (test concentration not listed); actives 0.02% (n = 390,000); AID 624415; in the data active means activity change below about -50%; inconclusive means about -30% to -50%; inactive means above about -30%;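 also: stimulus is agonist 54-4 at its EC80 concentration; % is scaled to controls: 0 for no effect and ±100 for the full control effect; compound concentration not given in the record; the text of the record puts the active cut at -80%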
#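 Calcium fluorescence in TRPML1-DL cells induced overnight with Tet: a 110 s read after compound pin addition, then a 110 s antagonist read after challenge with 54-4 at 4 uM final (EC80).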
# Six1-Eya2 blk – inhibitors of human Six1/Eya2 interaction. AID 651725. actives 0.56% (n = 360,000). AlphaScreen GST-Six1/His-Eya2 binding, biochemical; stronger effect = lower value; control for the full effect not named in the record. activity change, % (concentration not given with the values); in the data active = activity change below about -65%; inconclusive = about -30% to -65%; inactive = above about -30%; also: % is scaled to controls: 0 for no effect and ±100 for the full control effect
#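 AlphaScreen luminescence read after one hour at 37 °C in darkness. Pin-transferred compounds met GST-Six1 and His-Eya2 protein (5X stock 250 nM/500 nM) plus glutathione donor and Ni-chelate acceptor beads (5X, 50 ug/mL).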
# D2 agonist – activates the human D2 dopamine receptor; actives 0.084% (n = 360,000); AID 624465; P14416; DiscoveRx PathHunter D2 beta-arrestin, luminescence, 90 min; 100% = 57 uM dopamine signal; activation, % (test concentration not listed); in the data active = activation above about 40%; inconclusive = about 15% to 40%; inactive = below about 15%; also: compound concentration not given in the record; the text of the record calls up to 30% inactive
#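 DiscoveRx PathHunter D2 beta-arrestin cells (2,100/well) attached overnight, then compound-stimulated 90 min at 37 C in HBSS/10 mM HEPES/0.1% Tween-20 buffer; beta-galactosidase complementation read by luminescence after 1 h at ambient temperature. Dopamine 57 uM final (EC100) as control.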
# * = called active by the depositor; ? = inconclusive; . = not tested or not shown; [ ] = another dose, or the depositor's remark.
SMILES,PINK1 expr mod,D2 PAM,TRPML1 agonist,TRPML1 inh,Six1-Eya2 blk,D2 agonist
Cc1cc(NC(=O)c2ccc(-c3ccc(F)c(Cl)c3)o2)no1,5.6%,-12,0.4,4,1,-4.6
Cc1cc(C)nc(N(C#N)Cc2ccccc2C)n1,0.7%,-5,1.6,-18,0,0.0
Cc1cc(C)c(NC(=O)Cn2nc(-c3ccncc3)ccc2=O)c(C)c1,0.0%,.,-1.1,-5,.,.
CCC(CNC(=O)c1c(C)nn(-c2ccccc2)c1Cl)c1ccccc1 (stereo unspecified),1.7%,-2,4.0,32,-4,0.2
CC(C)CC(=O)Nc1cc(-c2ccccc2F)nn1-c1ccccc1,0.3%,.,-0.4,-4,.,.
COc1ccc(CCN2CC(C(=O)NCc3nc4ccccc4n3C)CCC2=O)cc1 (stereo unspecified),1.0%,-6,0.5,-9,4,-1.2
Brc1ccccc1CN1CCC(N2CCCCC2)CC1,0.1%[38.3 µM],-4,1.1,14,3,-4.0
CCC(C)NC(=O)c1cc2cc3ccc(OC)cc3nc2s1 (stereo unspecified),-3.5%,-16,-0.1,-7,-26,-0.8
COc1ccc(Nc2nc(N)nc(SCc3nnc(C)s3)n2)cc1,-0.5%,2,-0.1,-4,-9,5.5
COc1ccc([C@@H]2CC=C(C(=O)O)[C@H](c3ccc(Br)cc3)N2S(=O)(=O)c2ccc(C)cc2)cc1OC,-0.2%,-4,0.1,3,3,-1.1
Oc1c(Br)cc(C2N=C(c3ccccc3)NO2)cc1Br (stereo unspecified),3.8%,0,?,-21,2,2.2
CC(C)c1nnc(N2C(=O)c3oc4ccccc4c(=O)c3C2c2ccco2)s1 (stereo unspecified),9.1%,-5,2.4,4,20,-0.8
CCOC(=O)c1c(/N=C/N(C)C)sc2c1CCC2,0.3%,-4,0.6,16,-4,-0.6
O=C(c1ccccc1)c1cccs1,-1.6%,-5,-0.2,3,-2,-3.5
CCc1ccc(NC(=O)Cn2c(=O)n(-c3ccccc3)c(=O)c3ccc(C(=O)NCc4ccc5c(c4)OCO5)cc32)cc1,4.0%,.,1.5,18,.,.

# One compound at a time, from the list above:
# COc1ccc([C@@H]2CC=C(C(=O)O)[C@H](c3ccc(Br)cc3)N2S(=O)(=O)c2ccc(C)cc2)cc1OC is listed as PINK1 expr mod: -0.2%; D2 PAM: -4; TRPML1 agonist: 0.1; TRPML1 inh: 3; Six1-Eya2 blk: 3; D2 agonist: -1.1
# CCc1ccc(NC(=O)Cn2c(=O)n(-c3ccccc3)c(=O)c3ccc(C(=O)NCc4ccc5c(c4)OCO5)cc32)cc1 is listed as PINK1 expr mod: 4.0%; D2 PAM: .; TRPML1 agonist: 1.5; TRPML1 inh: 18; Six1-Eya2 blk: .; D2 agonist: .

# The list continues.
SMILES,PINK1 expr mod,D2 PAM,TRPML1 agonist,TRPML1 inh,Six1-Eya2 blk,D2 agonist
NC(=O)c1ccc(NC(=O)c2ccccc2S(=O)(=O)c2ccccc2[N+](=O)[O-])cc1,-0.4%,-25,-0.4,-3,-14,-1.2
Cc1ccc(NC(=O)CSc2nc(-c3ccco3)nc3cc(=O)[nH]n23)cc1C,9.0%,.,-1.1,-8,.,.
O=C1Nc2ccc(S(=O)(=O)N3CCCCCC3)c3cccc1c23,3.7%,-4,0.7,7,1,-0.4
Cc1ccc(C)c(CNC(=O)c2ccc3c(c2)nc2n3CCC(C)C2)c1 (stereo unspecified),1.6%,.,1.5,-11,.,.
COCCN(C)Cc1nc(C(c2ccccc2)c2ccccc2)no1,0.1%,-2,0.3,-10,-2,-4.8
O=C1NC[C@@H](CCCCN2C[C@H](Cc3ccccc3)N(Cc3ccccc3)C(=O)C2=O)N(CCc2ccccc2)C1=O,-0.2%,.,-0.3,.,1,.
Cc1cc2c(cc1S(=O)(=O)N1CCN(c3ccccc3)CC1)OCCN2C,4.1%,-5,0.2,-18,?,-0.7
Cc1noc(C)c1S(=O)(=O)NC(=O)C1(C)CCN1C(=O)c1ccccc1CCc1ccccc1 (stereo unspecified),0.3%,0,-0.1,.,1,2.9
Cc1ccc(NC(=O)CSCC(=O)OCc2cc(=O)oc3cc(O)ccc23)c(C)c1,3.2%,4,1.9,-15,2,-0.8
CNC(=S)NNC(=O)c1ccc2c(c1)OCO2,-2.7%,?,3.0,-2,4,3.8
Cc1cc(S(=O)(=O)n2cnc3cc([N+](=O)[O-])ccc32)ccc1Cl,1.5%,0,-0.6,-5,1,-2.4
Cc1cc(=O)[nH]c(SCC(=O)NCCC2=CCCCC2)n1,0.3%,-1,0.0,5,5,4.2
Cc1ccc(C(=O)Nc2cccc(OCc3cc(=O)n4c5c(sc4n3)CCCC5)c2)cc1,13%,.,-0.6,5,.,.
Cc1cccc(N2CCN(C(=O)CCC(=O)N3CC(C)Oc4ccc(C)cc43)CC2C)c1 (stereo unspecified),2.3%,-1,0.8,17,0,-4.8
Cc1ccc(N(CCC#N)C(=O)COC(=O)c2cc(C)no2)cc1,2.9%,24,-0.7,4,5,-2.3
O=C1NC[C@@H](CCCCN2CCN(Cc3ccccc3)C(=O)C2=O)N(CCC2CCCCC2)C1=O,0.3%,.,-0.2,.,1,.
CCOC(=O)[C@H](CCc1ccccc1)N[C@@H](C)C(=O)N1[C@H](C(=O)O)C[C@@H]2CCC[C@@H]21,1.1%,-3,1.3,0,5,-2.4
CC(=O)Nc1ccc(CN2CCCN(C)CC2)cc1,-0.3%,-1,0.0,13,-1,-1.6
Cc1ccccc1NC(=O)C(=O)NNC(=O)COc1ccc2ccccc2c1,1.2%,-8,0.9,-8,-4,-3.2
COc1ccc(CNC(=O)CCCn2nc(C)c([N+](=O)[O-])c2C)cc1OC,2.2%,-2,-0.2,-10,1,-1.2
Cc1ccc(-n2c(=O)c3c(c4cc(C)ccc4n3C)n(CC(=O)NCCC3=CCCCC3)c2=O)cc1,9.2%,.,1.4,17,.,.
COc1ccc(OC)c(/C=C/C(=O)Nc2ccc(C(=O)OCCC(C)C)cc2)c1,0.7%,.,2.4,4,.,.
Cc1ccc(COC(=O)Cc2coc3cc(O)ccc23)cc1,2.8%,-8,4.8,13,0,1.2
CCc1ccccc1S(=O)(=O)Cc1ccc(C(=O)NCc2ccc(Cl)cc2)o1,0.1%,.,1.8,49,.,.
Cc1ccc(S(=O)(=O)N2CCN(CCc3ccccc3)CC2)c(C)c1,1.8%,-15,0.0,26,-8,0.9
CCOC(=O)c1ccc2c(c1)[nH]c(=S)n2CC,-1.1%,-6,1.8,1,-6,0.9
CCOC(=O)N1CCN(C(=O)CSCC(=O)Nc2nc(-c3ccc(C)cc3)cs2)CC1,8.7%,-6,-0.2,-5,0,-2.6
CCOc1ccc(N2C(=O)c3cccnc3C2Nc2ccc(Cl)cc2)cc1 (stereo unspecified),-4.5%[38.3 µM],-5,2.7,31,-2,1.2
O=C(Cc1ccccc1)NN1CCCCC1,0.1%,2,0.7,-17,5,-5.0
CCc1sc(Nc2ccc(C)cc2Br)nc1-c1cc2cccc(OC)c2oc1=O,0.6%,.,-0.8,1,.,.
COc1ccc(NC(=O)CSc2nnc(Cn3cnc4ccccc43)o2)cc1,0.4%,-4,-0.6,-4,-1,1.2
COc1ccc(NC(=O)c2nn(C)c3c2CS(=O)(=O)c2ccccc2-3)cc1Cl,-1.7%,.,-0.1,-13,.,.
Cc1ccc(NC(=O)CSc2nnc(NC(=O)C3CC3)s2)cc1,1.4%,-9,2.3,7,4,-1.1
COC(=O)[C@]12CCCCC=C1N(Cc1ccco1)C(=O)[C@H](CC(=O)N1CCN(C(=O)C3CC3)CC1)C2,-0.6%,.,-0.8,.,4,.
COc1ccc2c(c1OC)CN(C)CCc1cc3c(cc1C(=O)C2)OCO3,3.1%,-4,0.3,-10,-9,-5.6
CC(=O)c1ccc(NC(=O)C(=O)c2cn(CC(=O)N3CCCCC3)c3ccccc23)cc1,5.2%,-10,0.6,-13,10,2.8
C=C(C)Cn1c(N2CCCC2)nc2c1c(=O)n(C)c(=O)n2C,0.9%,-3,-0.2,3,-1,-3.3
COC(=O)C(C)n1cnc2c(nnn2-c2cccc(OC)c2)c1=O (stereo unspecified),-0.8%,4,1.0,-12,-13,8.4
NC(=O)Cc1ccc(Nc2nnc(-c3ccc(O)cc3)c3ccccc23)cc1,1.6%,-1,0.6,-15,-28,0.1
CC(C)(C)NC(=O)NC(=O)COC(=O)c1ccc2c(c1)S(=O)(=O)N=C1CCCCCN12,-0.6%,0,-0.7,20,-7,1.2
Cc1ccc(C)c(OCCC(=O)N2CCN(S(=O)(=O)c3ccc([N+](=O)[O-])cc3)CC2)c1,1.5%,9,0.0,23,-8,0.9
CCN(CC)S(=O)(=O)c1cc(NC(=O)COC(=O)CCC(=O)c2cccs2)ccc1C,-1.7%,-7,0.0,7,-4,-2.6
Cc1[nH]c2c([N+](=O)[O-])cccc2c1C,1.5%,-20,1.5,7,-23,1.3
O=C(COC(=O)c1cc(Cl)nc(Cl)c1)Nc1ccc(Cl)c(S(=O)(=O)N2CCOCC2)c1,-2.7%,-6,2.8,-2,-18,-4.3
O=C(COC(=O)c1cccs1)Nc1ccccc1,-0.5%[38.3 µM],4,0.9,6,22,1.6
CCCn1nnc(NC(=O)c2cc(Br)ccc2OC)n1,-0.2%[38.3 µM],-21,-0.2,-10,0,-1.2
CC1CCN(C(=O)c2ccc3c(Cl)c4c(nc3c2)CCCC4)CC1,-0.2%,-6,0.4,-17,3,-3.6
COc1ccc(CNc2oc(-c3cccc4ccccc34)nc2C#N)cc1,2.2%,-29,-0.4,-3,2,0.9
N#Cc1ccc(OCC(=O)Nc2nc(-c3cccnc3)cs2)cc1,1.1%,-3,-0.7,-5,-5,1.8
COc1ccc(-c2cc(C(=O)OCC(=O)N(C)C)c3ccccc3n2)cc1,2.5%,-6,-0.3,-4,3,-4.6
Cc1ccc(F)cc1NC(=O)N1CCCN(C(=O)OC(C)(C)C)CC1,-0.2%,-4,-0.5,2,-1,-11
Cc1ccc(NC(=O)CSc2cn(CC(=O)N3CCOCC3)c3ccccc23)cc1Cl,1.8%,.,-0.4,1,.,.
CCOc1ccc(-n2c(SCc3nc(-c4ccc(OC)cc4)no3)nnc2-c2ccncc2)cc1,0.0%,.,0.8,13,.,.
CC(=O)Nc1ccc(NC(=O)CSc2nccn2Cc2ccccc2)cc1,2.1%,-12,-0.1,1,17,-1.7
COc1cc(NC(=O)COC(=O)CO/N=C(\C)c2ccc3c(c2)OCO3)cc(OC)c1,-1.1%,-7,1.7,-5,-10,-2.2
O=C(CSc1nnc(CNc2ccc(F)cc2)o1)N1CCCc2ccccc21,-2.7%,6,2.0,-12,-3,0.7
CCOC(=O)C1=C(COC(=O)CCOc2ccc(C)cc2)NC(=O)NC1C (stereo unspecified),9.8%,-23,-1.2,-2,0,-3.8
COC(=O)c1cc2oc(C)cc2n1Cc1ccc(C)cc1,0.2%,.,2.3,-5,.,.
